# FGF22 binding – FGF22 (human) thermal shift binding. Q9HCT0. calls only at 9.99 µM. hit rate 1.5% among 340,000. recombinant FGF22 thermal shift, SYPRO orange fluorescence; percent of sucrose octasulfate shift, DMSO zero. AID 651658;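 active = melting point raised past a set limit in the mean and every replicate; three in four hits are not shown here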
# Target sequence (Q9HCT0 whole entry, looked up): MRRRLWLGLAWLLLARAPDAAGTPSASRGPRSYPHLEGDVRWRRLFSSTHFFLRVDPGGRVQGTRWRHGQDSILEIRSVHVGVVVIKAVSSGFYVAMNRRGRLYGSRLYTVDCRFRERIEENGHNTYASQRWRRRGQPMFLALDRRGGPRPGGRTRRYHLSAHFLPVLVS
# Calls only; i = inactive.
FGF22 binding | SMILES
i | C[C@@H]1CCCCO[C@H](CN(C)C(=O)CCCN(C)C)[C@@H](C)CN([C@@H](C)CO)C(=O)c2cc(NC(=O)Nc3ccc4c(c3)OCO4)ccc2O1
i | C[C@@H]1CN([C@H](C)CO)C(=O)c2c(c3ccccc3n2C)-c2ccccc2CO[C@@H]1CN(C)Cc1cccc(O)c1
i | CO[C@@H]1CN(C)C(=O)c2ccc(NC(=O)c3cnccn3)cc2OC[C@@H](C)NC[C@H]1C
i | COCC(=O)Nc1ccc2c(c1)OC[C@H](C)N(C)C[C@@H](C)[C@H](OC)CN(C)C2=O
i | C[C@@H]1CCCCO[C@@H](CN(C)Cc2ccc(C(F)(F)F)cc2)[C@H](C)CN([C@@H](C)CO)C(=O)c2cc(NC(=O)Nc3ccc(C(F)(F)F)cc3)ccc2O1
i | COCC(=O)N1[C@@H]2c3ccc(-c4ccncc4)c(=O)n3C[C@@H]2[C@@H](CO)[C@@H]1C(=O)Nc1ccccc1
i | CCCNC(=O)N1C[C@@H](O)COC[C@@H]2O[C@H](CC(=O)N[C@@H]3CCN(Cc4ccccc4)C3)CC[C@H]21
i | C[C@H]1CN([C@@H](C)CO)C(=O)c2cccc(NC(=O)Nc3ccccc3)c2O[C@@H]1CN(C)C(=O)Nc1cccc2ccccc12
i | C[C@@H]1CCCCO[C@H](CN(C)C)[C@H](C)CN([C@@H](C)CO)C(=O)c2cc(NC(=O)c3ccccc3)ccc2O1
i | C[C@H](CO)N1C[C@H](C)[C@H](CN(C)CC2CCOCC2)Oc2cc(Br)ccc2S1(=O)=O
i | CO[C@H]1CN(C)C(=O)c2cccc(C#N)c2OC[C@H]2O[C@@H](CC[C@H]2OC)CCN(C)C(=O)[C@H]1C
i | O=C(C[C@@H]1CC[C@@H]2[C@H](COC[C@H](O)CN2C(=O)c2cccnc2)O1)NC1Cc2ccccc2C1
i | C[C@@H]1CCCCO[C@@H](CN(C)Cc2ccc(C(F)(F)F)cc2)[C@H](C)CN([C@@H](C)CO)C(=O)c2cc(N(C)C)ccc2O1
i | COc1ccc([Si](C)(C)[C@@H]2[C@@H](CCO)O[C@]3(C(=O)N(Cc4ccccc4)c4ccc(N5CCOC5=O)cc43)[C@H]2C)cc1
i | C[C@@H]1CCCCO[C@@H](CN(C)Cc2ccc3c(c2)OCO3)[C@@H](C)CN([C@H](C)CO)C(=O)c2cc(NC(=O)CCCCCC(=O)Nc3ccccc3N)ccc2O1
i | O=C(NC1CCCCC1)N[C@H]1CC[C@H](CCNS(=O)(=O)c2ccccc2)O[C@H]1CO
i | CCCC(=O)N1CC2(C1)CN(Cc1ccc(Cl)cc1)[C@H](CO)c1[nH]c3cc(OC)ccc3c12
i | C[C@H]1CN([C@@H](C)CO)C(=O)Cc2cc(NC(=O)Cn3cnnn3)ccc2O[C@H]1CN(C)S(C)(=O)=O
i | Cc1noc(C)c1NC(=O)Nc1ccc2c(c1)C(=O)N([C@@H](C)CO)C[C@@H](C)[C@H](CN(C)S(=O)(=O)c1cn(C)cn1)OCCCC[C@@H](C)O2
i | CO[C@H]1CN(C)C(=O)c2cc(NS(=O)(=O)c3ccccc3)ccc2OC[C@H](C)N(Cc2nccs2)C[C@H]1C
i | CNC[C@H]1Oc2ccc(NS(=O)(=O)c3ccccc3)cc2C(=O)N([C@@H](C)CO)C[C@@H]1C
i | C[C@H](CO)N1C[C@H](C)[C@@H](CN(C)Cc2ccncc2)Oc2ncc(C#CC3CCCC3)cc2C1=O
i | C[C@@H]1CCCCO[C@H](CN(C)Cc2ccc(C(F)(F)F)cc2)[C@@H](C)CN([C@H](C)CO)C(=O)c2cc(NC(=O)Cc3ccccc3)ccc2O1
i | C[C@H]1CN([C@@H](C)CO)C(=O)Cc2cc(NC(=O)Nc3ccc4c(c3)OCO4)ccc2O[C@H]1CN(C)Cc1ccccc1
i | O=C(Nc1ccccc1F)N1CCCCN2[C@H](CO)[C@H](c3ccc(C4=CCCC4)cc3)[C@H]2C1
i | C[C@@H]1CN([C@@H](C)CO)C(=O)c2cc(NC(=O)CCCN(C)C)ccc2O[C@H]1CN(C)Cc1ccc(-c2ccccc2)cc1
i | COc1ccc(C#Cc2cnc3c(c2)C(=O)N([C@@H](C)CO)C[C@H](C)[C@H](CN(C)CC2CCOCC2)O3)cc1
i | CN1C(=O)c2cc(NS(=O)(=O)c3ccccc3F)ccc2OC[C@H]2O[C@@H](CC(=O)NC3Cc4ccccc4C3)CC[C@H]21
i | COc1ccc(NC(=O)Nc2ccc3c(c2)C(=O)N([C@@H](C)CO)C[C@@H](C)[C@H](CN(C)S(=O)(=O)c2ccc(OC)cc2)OCCCC[C@H](C)O3)cc1
i | C[C@@H]1CN([C@H](C)CO)C(=O)c2cc(NS(=O)(=O)c3ccccc3)ccc2O[C@@H]1CN(C)Cc1ccncc1
i | CO[C@H]1CN(C)C(=O)c2cc(NC(=O)c3nc4ccccc4s3)ccc2OC[C@H](C)N(Cc2ccncc2)C[C@@H]1C
i | COc1ccc(S(=O)(=O)Nc2ccc3c(c2)C(=O)N([C@H](C)CO)C[C@@H](C)[C@@H](CN(C)C(=O)c2ccccc2)OCCCC[C@H](C)O3)cc1
i | O=C(N[C@H](Cc1ccccc1)C(=O)N1CCCN(Cc2cccs2)CC1)[C@H]1O[C@@H](n2ccc(=O)[nH]c2=O)[C@H](O)[C@@H]1O
i | CC=Cc1ccc2n(c1=O)C[C@H]1[C@H](CO)[C@@H](C(=O)NCc3ccccc3F)N(CCC)[C@@H]21 (mixture of isomers)
i | CCC(=O)N(C)C[C@@H]1Oc2cc(-c3ccccc3F)ccc2S(=O)(=O)N([C@@H](C)CO)C[C@@H]1C
i | Cc1ccc(S(=O)(=O)N(C)C[C@@H]2OCc3ccccc3-c3c(n(C)c4ccccc34)C(=O)N([C@H](C)CO)C[C@H]2C)cc1

# Structures from the list above containing a halogen (9):
FGF22 binding | SMILES
i | C[C@@H]1CCCCO[C@@H](CN(C)Cc2ccc(C(F)(F)F)cc2)[C@H](C)CN([C@@H](C)CO)C(=O)c2cc(NC(=O)Nc3ccc(C(F)(F)F)cc3)ccc2O1
i | C[C@H](CO)N1C[C@H](C)[C@H](CN(C)CC2CCOCC2)Oc2cc(Br)ccc2S1(=O)=O
i | C[C@@H]1CCCCO[C@@H](CN(C)Cc2ccc(C(F)(F)F)cc2)[C@H](C)CN([C@@H](C)CO)C(=O)c2cc(N(C)C)ccc2O1
i | CCCC(=O)N1CC2(C1)CN(Cc1ccc(Cl)cc1)[C@H](CO)c1[nH]c3cc(OC)ccc3c12
i | C[C@@H]1CCCCO[C@H](CN(C)Cc2ccc(C(F)(F)F)cc2)[C@@H](C)CN([C@H](C)CO)C(=O)c2cc(NC(=O)Cc3ccccc3)ccc2O1
i | O=C(Nc1ccccc1F)N1CCCCN2[C@H](CO)[C@H](c3ccc(C4=CCCC4)cc3)[C@H]2C1
i | CN1C(=O)c2cc(NS(=O)(=O)c3ccccc3F)ccc2OC[C@H]2O[C@@H](CC(=O)NC3Cc4ccccc4C3)CC[C@H]21
i | CC=Cc1ccc2n(c1=O)C[C@H]1[C@H](CO)[C@@H](C(=O)NCc3ccccc3F)N(CCC)[C@@H]21 (mixture of isomers)
i | CCC(=O)N(C)C[C@@H]1Oc2cc(-c3ccccc3F)ccc2S(=O)(=O)N([C@@H](C)CO)C[C@@H]1C

# Next entries
FGF22 binding | SMILES
i | COC(=O)[C@@]1(Cc2ccc(OC)cc2)[C@H]2c3cc(C(=O)N4CCCC4)n(Cc4ccc(OC)c(OC)c4)c3C[C@H]2CN1C(=O)c1ccccc1
i | COc1ccccc1C(=O)Nc1ccc2c(c1)OC[C@H](C)N(C(C)=O)C[C@@H](C)[C@@H](OC)CN(C)C2=O
i | C[C@H](CO)N1C[C@H](C)[C@H](CN(C)C(=O)CN2CCOCC2)Oc2cc(/C=C/c3ccccc3)ccc2S1(=O)=O
i | COc1ccc(C#Cc2ccc([C@@H]3[C@@H](CO)N4C(=O)CN(C(=O)NC(C)C)C[C@@H]34)cc2)cc1
i | COc1ccc(NC(=O)Nc2ccc3c(c2)[C@@H]2C[C@H](CC(=O)NC4CCCCC4)O[C@H](CO)[C@@H]2O3)cc1
i | Cc1ccc(S(=O)(=O)N(C)C[C@@H]2Oc3ccc(NC(=O)CCC(F)(F)F)cc3C(=O)N([C@@H](C)CO)C[C@H]2C)cc1
i | COc1ccc(NC(=O)Nc2ccc3c(c2)C(=O)N([C@@H](C)CO)C[C@H](C)[C@H](CN(C)Cc2ccc(Cl)c(Cl)c2)OCCCC[C@@H](C)O3)cc1
i | C[C@H](CO)N1C[C@H](C)[C@@H](CN(C)Cc2ccccc2)Oc2ncc(-c3cccc(F)c3)cc2C1=O
i | C[C@H]1CN([C@@H](C)CO)C(=O)c2cc(C3=CCCC3)cnc2O[C@@H]1CN(C)C(=O)c1ccc(F)cc1
i | O=C(C[C@H]1CC[C@H](NC(=O)c2cccnc2)[C@@H](CO)O1)NCc1ccc(Cl)c(Cl)c1
i | O=C(Nc1ccc(Cl)cc1)N[C@H]1CC[C@@H](CCNS(=O)(=O)c2ccccc2F)O[C@H]1CO
i | C[C@@H]1CN([C@H](C)CO)C(=O)c2cc(NC(=O)CCCCCC(=O)Nc3ccccc3N)ccc2O[C@H]1CN(C)S(=O)(=O)c1cn(C)cn1
i | O=C(N[C@@H]1CC[C@@H](CCNC(=O)C2CCOCC2)O[C@H]1CO)c1ccccn1
i | CC(C)NC(=O)N(C)C[C@@H]1Oc2c(NC(=O)NC3CCCCC3)cccc2C(=O)N([C@H](C)CO)C[C@H]1C
i | CN(C)CC(=O)N1C[C@H]2[C@@H](c3ccccc31)[C@@H](CO)N2C(=O)c1ccccn1
i | C[C@H]1CN([C@@H](C)CO)C(=O)Cc2cc(NC(=O)CCCCCC(=O)Nc3ccccc3N)ccc2O[C@H]1CN(C)C(=O)Nc1cccc2ccccc12
i | CN1C(=O)c2cc(NC(=O)c3ccc(F)cc3)ccc2OC[C@@H]2O[C@@H](CC(=O)NCC3CC3)CC[C@@H]21
i | C[C@@H]1CN([C@H](C)CO)C(=O)c2cc(NS(=O)(=O)c3cn(C)cn3)ccc2O[C@@H](C)CCCCO[C@@H]1CN(C)C(=O)NC1CCCCC1
i | C[C@H](CO)N1C[C@H](C)[C@H](CN(C)Cc2ccncc2)Oc2c(NC(=O)Nc3cccc4ccccc34)cccc2C1=O
i | C[C@H](CO)N1C[C@H](C)[C@H](CN(C)C(=O)Nc2ccccc2)OCCCC[C@H](C)Oc2ccc(NC(=O)c3ccccc3)cc2C1=O
i | COc1ccc(CN(C)C[C@H]2OCCCC[C@H](C)Oc3ccc(NC(=O)CCC(F)(F)F)cc3C(=O)N([C@H](C)CO)C[C@@H]2C)cc1
i | CCCNC(=O)c1cc2c(c(-c3cccc(-c4cccc(F)c4)c3)n1)[C@@H](CCO)N([S@](=O)C(C)(C)C)C2
i | COc1ccc(CN(C)C[C@H]2Oc3c(NS(=O)(=O)c4cccs4)cccc3C(=O)N([C@@H](C)CO)C[C@@H]2C)cc1
i | CC(C)NC(=O)Nc1ccc2c(c1)C(=O)N([C@H](C)CO)C[C@H](C)[C@H](CN(C)C(=O)c1ccncc1)OCCCC[C@@H](C)O2
i | O=C(NCC[C@@H]1CC[C@H](NC(=O)c2ccc3c(c2)OCO3)[C@@H](CO)O1)Nc1ccc(Cl)cc1
i | COc1ccc(NC(=O)Nc2ccc3c(c2)C(=O)N([C@H](C)CO)C[C@@H](C)[C@H](CN(C)Cc2ccc(C(=O)O)cc2)OCCCC[C@@H](C)O3)cc1
i | C[C@@H]1CCCCO[C@@H](CN(C)C(=O)C2CCCCC2)[C@H](C)CN([C@@H](C)CO)C(=O)c2cc(NS(=O)(=O)c3cccs3)ccc2O1
i | O=C(CCN1CCCCC1)NCC[C@@H]1CC[C@H](NC(=O)C2CCCC2)[C@H](CO)O1
i | C[C@H]1CCCCO[C@@H](CN(C)C(=O)Nc2ccc(C(F)(F)F)cc2)[C@@H](C)CN([C@@H](C)CO)C(=O)c2cc(NS(=O)(=O)c3ccc(F)cc3)ccc2O1
i | O=C(C1CCC1)N1CC2(C1)[C@H](c1ccccc1)[C@@H](CO)N2Cc1cccnc1
i | CCS(=O)(=O)N1CCCCN2[C@H](C1)[C@H](c1ccc(-c3ccccc3C)cc1)[C@@H]2CO
i | CN(C)C(=O)C[C@@H]1CC[C@H]2[C@H](COc3ccc(NC(=O)c4ccc(F)cc4)cc3C(=O)N2C)O1
i | COc1ccc(S(=O)(=O)Nc2ccc3c(c2)CC(=O)N([C@H](C)CO)C[C@H](C)[C@@H](CN(C)S(=O)(=O)c2cccs2)O3)cc1
i | C[C@H]1CN([C@@H](C)CO)C(=O)c2cc(NC(=O)Cc3cn(C)c4ccccc34)ccc2O[C@@H]1CN(C)Cc1ccc(Cl)c(Cl)c1
i | O=C(NCc1ccccc1)[C@H]1CCCN1C(=O)[C@H]1CCCN1C(=O)c1cccc(F)c1
i | O=C(c1ccncc1)N1CCCCN2[C@H](CO)[C@H](c3ccc(-c4ccccc4)cc3)[C@H]2C1
i | COc1ccc(S(=O)(=O)N(C)C[C@H]2Oc3ccc(NS(=O)(=O)c4ccccc4)cc3C(=O)N([C@@H](C)CO)C[C@@H]2C)cc1
i | C[C@@H]1CCCCO[C@@H](CN(C)Cc2ccc(C(=O)O)cc2)[C@@H](C)CN([C@H](C)CO)C(=O)c2cc(NC(=O)Nc3ccc(C(F)(F)F)cc3)ccc2O1
i | O=C(Nc1cccc(F)c1)N1CCCCN2[C@@H](CO)[C@H](c3ccc(C#Cc4ccccc4)cc3)[C@@H]2C1
i | CO[C@H]1CN(C)C(=O)c2ccc(NC(=O)Nc3cc(F)ccc3F)cc2OC[C@H](C)N(C(=O)c2ccccn2)C[C@H]1C
i | Cc1noc(C)c1NC(=O)N(C)C[C@@H]1Oc2ccc(NC(=O)NC(C)C)cc2C(=O)N([C@H](C)CO)C[C@H]1C
i | COc1ccc(S(=O)(=O)N(C)C[C@@H]2Oc3ccc(NC(=O)NC4CCCCC4)cc3C(=O)N([C@@H](C)CO)C[C@@H]2C)cc1

# Screening data: PubChem, Broad Institute

# Not all compounds are listed (hit frequency here may not be typical).
